Assay outcomes from PubChem BioAssay.
Kir21 block: inhibitors of mouse Kir2.1 inward-rectifier potassium channel; 0.85% of 310,000 active; B-score at 10 µM; HEK293-Kir2.1, FluxOR thallium flux fluorescence; active compounds read low;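 active means fluorescence ratio B-score at or below minus 3 SD of library scores, with starting-brightness B-score within 2 SD, cut at about -4.2 in these data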;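 further: channel flux triggered by added potassium and thallium sulfate stimulus; B-score of peak minus minimum fluorescence over baseline after thallium stimulus; more negative B-score means stronger Kir2.1 block with less thallium influx; some compounds called inactive have numbers as strong as hits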
Target sequence (P35561 whole entry, looked up): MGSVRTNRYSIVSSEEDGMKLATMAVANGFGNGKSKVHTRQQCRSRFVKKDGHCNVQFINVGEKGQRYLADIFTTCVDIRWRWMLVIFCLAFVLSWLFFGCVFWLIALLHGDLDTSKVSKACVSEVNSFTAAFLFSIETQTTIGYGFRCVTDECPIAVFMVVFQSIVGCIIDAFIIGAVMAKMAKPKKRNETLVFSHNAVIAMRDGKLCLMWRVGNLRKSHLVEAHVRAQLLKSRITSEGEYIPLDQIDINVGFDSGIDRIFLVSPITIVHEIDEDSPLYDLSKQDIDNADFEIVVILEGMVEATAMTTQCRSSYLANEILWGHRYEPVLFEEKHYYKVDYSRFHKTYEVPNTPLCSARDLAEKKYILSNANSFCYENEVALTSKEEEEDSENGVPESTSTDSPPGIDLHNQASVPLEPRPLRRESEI
STK33 inh: inhibitors of human STK33 kinase. purified STK33, MBP phosphorylation, ADP-Glo luminescence. AID 2661. 0.073% of 320,000 active. inhibition, % at 10 µM;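 active means inhibition at or above 25%, using the most active replicate where run in duplicate; inactive means inhibition below 25%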
Target sequence (Q9BYT3 whole entry, looked up): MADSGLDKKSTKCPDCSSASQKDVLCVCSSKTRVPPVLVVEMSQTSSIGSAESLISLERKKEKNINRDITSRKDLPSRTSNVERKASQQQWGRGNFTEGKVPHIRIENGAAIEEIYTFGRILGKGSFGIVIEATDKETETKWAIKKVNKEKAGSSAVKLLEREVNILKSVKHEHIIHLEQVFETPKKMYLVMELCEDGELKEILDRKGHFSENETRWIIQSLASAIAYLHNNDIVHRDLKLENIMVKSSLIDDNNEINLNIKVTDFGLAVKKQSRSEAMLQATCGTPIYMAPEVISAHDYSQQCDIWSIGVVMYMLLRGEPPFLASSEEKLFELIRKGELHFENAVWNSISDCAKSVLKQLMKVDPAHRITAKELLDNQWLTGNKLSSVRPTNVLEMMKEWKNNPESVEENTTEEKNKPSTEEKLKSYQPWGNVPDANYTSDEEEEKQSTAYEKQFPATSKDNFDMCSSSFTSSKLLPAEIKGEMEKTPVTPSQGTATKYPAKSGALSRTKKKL
Starred values were filed as active, the others as inactive; . = no result given. The list is partial, and most or all hits are left out here.

SMILES | Kir21 block | STK33 inh
C=C(C)C(=O)Nc1cccc(C2=NOC3(C2)C[C@@H](C(N)=O)N(C(=O)/C=C/C=C/C)C3)c1 (some centres not stated) | 0.05 | -1.3
O=C(Nc1cccc(NC(=O)c2cccs2)c1)c1ccc(F)cc1 | 1 | 1.4
C[C@@H](CN1C(=O)C(=O)NC[C@@H]1Cc1ccc(O)cc1)NC(=O)Cc1ccccc1 | 0.86 | -0.4
COc1ccc(OCC(=O)N/N=C/c2ccsc2)cc1 | -0.26 | .
CC1=C(C)CC(C(=O)Nc2cccc(Cl)c2)C(C(=O)O)C1 (configuration not stated) | -1.4 | 0.4
COc1ccc(OCc2cc(C(=O)NC3CCc4ccccc43)no2)c(Cl)c1 (configuration not stated) | -0.15 | 0.7
CCOC(=O)C1=C(C)OC(N)=C(C#N)C1c1cc2cc(C)ccc2nc1N1CCCCC1 (configuration not stated) | -0.39 | -1.6
C=C(C)c1cccc(C(C)(C)NC(=O)N2CCN(c3ncccn3)CC2)c1 | 0.18 | -1.4
COc1cccc(CNC(=O)CN2C(=O)COc3ccc(S(=O)(=O)N4CCOCC4)cc32)c1 | 0.02 | 0.4
CCOC(=O)Cc1csc(NC(=O)c2ccc(S(=O)(=O)N3CCCC3)cc2)n1 | -0.43 | -1.9
Nc1nc(-c2ccccn2)nc(N)c1Cc1c(F)cccc1Cl | -0.45 | -2.2
CCCCN(C(=O)c1ccc(OC)c([N+](=O)[O-])c1)c1c(N)n(CCC)c(=O)[nH]c1=O | -0.91 | -0.3
COc1ccccc1CNC(=O)CNC(=O)c1sc2ccccc2c1Cl | 0.84 | 0.1
Cc1ccc(C)c(NC(=O)C(OC(=O)c2ccc(C)s2)c2ccccc2)c1 (configuration not stated) | 0.57 | .
CCOc1ccc(-c2c(=O)n(OCc3ccc([N+](=O)[O-])cc3)c3ccccc3[n+]2[O-])cc1 | 0.02 | -3.2
Cc1csc(N(C(=O)Cc2ccccc2F)c2ccccc2)n1 | -1.6 | -0.5
COc1ccc(NC(=O)CN(C)C(=O)CCCNC(=O)c2ccc(Cl)cc2)cc1 | 0.02 | -1.4
O=C(O)CC(NC(=S)NCc1ccccc1)C(=O)O (configuration not stated) | 1.5 | -1.1
CCOc1ccc(N2CCc3c(C)nc(SC)nc32)cc1 | -0.82 | -2.3
CN(C)c1ccc(NC(N)=S)cc1 | 2.3 | -0.2
CC1(C)C=C2C(=NN(c3ccccc3)C(N)=C2C#N)CO1 | -0.15 | -0.4
COc1ccccc1C(=O)COC(=O)Cc1c[nH]c2ccccc12 | 0.16 | -1.3
O=C1CC[C@@H](C(=O)N2CSC[C@H]2C(=O)O)N1 | 0.13 | 0.3
C/C(=N\Nc1ccc([N+](=O)[O-])cc1)c1cccc(N)c1 | 0.63 | -0.6
COc1ccc(-n2c(SCC(=O)Nc3ccccc3)nnc2-c2ccoc2C)cc1 | -0.34 | -0.6

Complete entries, quoted from the list. Values in the order: Kir21 block	STK33 inh
C/C(=N\Nc1ccc([N+](=O)[O-])cc1)c1cccc(N)c1 reads 0.63	-0.6
CCOc1ccc(-c2c(=O)n(OCc3ccc([N+](=O)[O-])cc3)c3ccccc3[n+]2[O-])cc1 reads 0.02	-3.2

(next part)
SMILES | Kir21 block | STK33 inh
CCC1=Nc2cc(C(=O)NCCCN3CCOCC3)ccc2Sc2ccccc21 | 0.2 | 0.8
O=C(C1CC(c2cccc(Br)c2)=NO1)N1CCc2ccccc2C1 (configuration not stated) | -1.1 | -3.4
O=C(NCc1ccccc1)C(c1ccc(F)cc1)N(Cc1ccco1)C(=O)c1ccccn1 (configuration not stated) | 0.48 | -1.9
COC(=O)CCC(=O)N1CCCC(CO)(Cc2ccccc2)C1 (configuration not stated) | -1.7 | 0.4
O=C(NCCc1cccc(Cl)c1)c1ccc2c(c1)OCO2 | -0.15 | -0.7
CN(C)CCCNC(=O)C1(O)c2cc(Br)ccc2NC(=O)N1c1c(F)cccc1F (configuration not stated) | -0.46 | -1.3
O=C(NNC(=O)c1ccc(Cl)c([N+](=O)[O-])c1)c1ccncc1 | 0.49 | -2.7
O=C(/C=C/c1ccccc1Cl)NCc1ccccc1 | 0.54 | 0.8
CCOCCCNC(=O)C1CCN(S(=O)(=O)c2ccc3nc4c(c(C(=O)O)c3c2)CCCCC4)CC1 | 1.5 | -0.4
O=c1oc2ccccc2c2c1ncn2-c1ccccc1 | 1 | 1.7
CCOc1ccccc1COC(=O)c1cccc(-n2cnnn2)c1 | 1.2 | -2.6
O=C1CCN(CCCc2ccccc2)CCN1[C@H](CO)c1ccccc1 | -0.19 | -0.4
Cc1ccc(C2CC(c3ccccc3)=NN2C(=S)Nc2ccccc2)o1 (configuration not stated) | -1.5 | 0.7
COc1cccc(-c2nc(C#N)c(N3CCN(C(=O)c4ccco4)CC3)o2)c1 | 0.26 | -5.3
Cc1c(C=O)c2ccccc2n1CC(=O)NC(C)c1ccccc1 (configuration not stated) | 0.55 | -0.5
CC(=O)N1CCC(C(=O)NCCOc2ccc(C)cc2)CC1 | -0.72 | 2.0
COc1ccc(-c2cnnn2-c2ccc(NC(=O)c3ccc(S(=O)(=O)N4CCCCC4)cc3)cc2)cc1OC | -0.21 | 0.0
O=C(Nc1ccc(C(=O)O)cc1)/C(=C\c1cccc([N+](=O)[O-])c1)NC(=O)c1ccc(Br)o1 | -0.95 | -0.9
Cc1cccc(NC(=O)c2cccc3c2C(=O)c2ccccc2-3)c1 | 1.2 | -1.5
N#C/C(=C/c1ccc(-c2cc(C(=O)O)cc(C(=O)O)c2)o1)c1nc2ccccc2s1 | -0.66 | 15
COC(=O)C1(C(F)(F)F)N=C(N(C)C)OC(N(C)C)=N1 | 0.06 | -3.0
CC(C)CC(=O)Nc1cc2c3c(c1)C(C)C(=O)N3CCC2 (configuration not stated) | -1.3 | -0.3
Cc1ccc(N2CC(C(=O)N(C)CC(=O)Nc3ccc(Cl)c(C(F)(F)F)c3)CC2=O)cc1 (configuration not stated) | -0.6 | -0.2
COc1cccc(CN(C)C(=O)c2cccc(S(=O)(=O)NCc3ccccc3)c2)c1OC | -2.3 | -0.9
N#Cc1ccc(NC(=O)CN2C(=O)NC(Cc3ccccc3)C2=O)cc1 (configuration not stated) | -0.48 | -0.5

Next section
SMILES | Kir21 block | STK33 inh
O=C(O)CCC/C=C\C[C@@H]1[C@@H](/C=C/[C@@H](O)COc2cccc(Cl)c2)[C@H](O)C[C@@H]1O | 0.11 | -1.3
COCc1cc(=O)[nH]c(-c2ccc(C(F)(F)F)cc2)n1 | -0.59 | 1.1
C/C(=N\NC(=O)c1ccncc1)c1cccc(NC(=O)c2ccc(C(C)(C)C)cc2)c1 | 0.35 | -0.6
Cc1ccc(C2(c3noc(CN(C)Cc4cnn(C)c4)n3)CCCC2)cc1 | -0.79 | -1.4
Cc1cnc2cc(Cl)ccc2c1SCC(=O)O | 0.81 | 4.8
O=C(Nc1ccc(C(F)(F)F)cc1)C1CCN(S(=O)(=O)c2ccc(N3CCCC3=O)cc2)CC1 | 0.43 | -0.3
Cc1nnc(N(C)C(=O)Cc2ccc3c(c2)OCO3)s1 | -0.08 | -0.4
Cc1c(NC(=O)c2c([N+](=O)[O-])cnn2C)c(=O)n(-c2ccccc2)n1C | -1.2 | -1.0
O=C(C1CC1)N1c2ccccc2Sc2ccccc21 | -2.1 | -0.5
CCn1c(SCC(=O)Nc2cccc(C)c2)nc2ccccc2c1=O | -0.43 | -1.4
COc1ccccc1CNC(=O)C1CC(c2ccc([N+](=O)[O-])cc2)=NO1 (configuration not stated) | 0 | 0.9
CN(C)CCN(C(=O)c1ccc(S(=O)(=O)N(C)c2ccccc2)cc1)c1nc2ccc(Cl)cc2s1 | -0.33 | -1.1
COc1ccc(-c2csc(NC(=O)c3ccccc3C(=O)O)n2)cc1 | -1.7 | -1.3
COC(=O)c1c(-c2c(Cl)cccc2Cl)noc1C(=O)NNC(=O)N(C)C | 1.9 | -1.9
O=C(Nc1ccc(N2CCN(C(=O)c3ccco3)CC2)c(Cl)c1)c1cccs1 | 1.5 | 0.2
CCCCCn1c(=O)[nH]c2cc(C(=O)Nc3ccc(OC)cc3)ccc2c1=O | 0.09 | -1.2
CCOC(=O)c1c(C)[nH]c(C)c1S(=O)(=O)NC(CC)CN1CCOCC1 (configuration not stated) | -1.4 | 0.4
CCCNC(=O)OC[C@H]1O[C@H](CCO/N=C/[C@@H](OC)[C@H](C)/C=C/CC(=O)OC)C=C[C@@H]1Oc1ccc(OC)cc1 | -0.82 | 0.1
COCCNC(=O)c1ccc2c(=O)n(Cc3ccco3)c(SCC(=O)NC3CCCC3)nc2c1 | -0.02 | 0.0
CC(C)(C)c1ccc(COC(=O)CN2C(=O)NC3(CCCC3)C2=O)cc1 | 0.67 | 0.7
CC(=O)Nc1ccc(NC(=O)Nc2ccc(C)c(C)c2)cc1 | 0.6 | -0.6
CCC(C)NC(=S)N(Cc1cc2cc(C)ccc2n2nnnc12)CC(C)(C)NC(C)C (configuration not stated) | 1.8 | -1.1
COc1ccc(CN(C(=O)c2ccco2)c2ccc(Br)cc2)cc1OC | -1.3 | -2.5
CCOCCCN1CC(C(=O)NCCc2ccc(C)cc2)CC1=O (configuration not stated) | 0.08 | -1.3
O=C(O)CCCC(=O)Nc1c(F)c(F)c(F)c(F)c1F | -1.9 | 1.1

As a short view, part of the list above.
SMILES | Kir21 block | STK33 inh
COc1ccc(CN(C(=O)c2ccco2)c2ccc(Br)cc2)cc1OC | -1.3 | -2.5
CCOCCCN1CC(C(=O)NCCc2ccc(C)cc2)CC1=O (configuration not stated) | 0.08 | -1.3
O=C(O)CCCC(=O)Nc1c(F)c(F)c(F)c(F)c1F | -1.9 | 1.1

The list continues.
SMILES | Kir21 block | STK33 inh
CCOC(=O)C1CCCN(c2ncnc3c2[nH]c2cccc(OC)c23)C1 (configuration not stated) | 0.17 | .
Cc1cc(Cl)ccc1OCC(=O)NNC(=O)c1ccco1 | -0.41 | 0.9
c1ccc(-c2noc(CN3CCCC(OCc4ccccn4)C3)n2)cc1 (configuration not stated) | -0.67 | -1.4
Cc1cc(C)nc(-n2nc(C)c(Oc3ccccc3O)c2C)n1 | -0.64 | -1.2
CC(Sc1nnc(Nc2ccccc2)s1)C(=O)Nc1nc(-c2ccccc2)cs1 (configuration not stated) | -0.02 | -1.3
CCOC(=O)c1cnc2cc(-c3ccc(C)cc3)nn2c1-c1ccccc1 | -0.05 | 0.0
CCOc1ccc(NC(=O)CCN2CCN(C)CC2)cc1 | -0.54 | 0.0
COc1cc2[nH]c(=O)c(C(=O)NCCCN3CCCCC3)c(O)c2cc1OC | -0.04 | -0.4
Cc1cc(C)c2c(N)c(C(=O)c3ccccc3)oc2n1 | 2 | .
CC1=CC=CN2C1=NC(=O)CC2(C)C(=O)N(CC(=O)NC1CCCC1)c1cc(C)cc(C)c1 (configuration not stated) | -0.79 | -1.0
CS(=O)(=O)N(CC(=O)NCCSC1CCCCC1)c1cccc(F)c1 | -1.2 | -2.3
Clc1ccc(Oc2nc(N3CCOCC3)nc(N3CCOCC3)n2)cc1 | 0.05 | -0.6
CCC1CCCCN1CCNC(=O)CNS(=O)(=O)c1ccc2nc(C)sc2c1 (configuration not stated) | -1.7 | 1.2
COc1ccc(-c2oc3ccc(-c4cc(OC)c(OC)c(OC)c4)cc3c2-c2ccc(OC)nc2)cc1 | 0.45 | -0.9
NC(=O)CC(NC(=O)Cc1ccc(Br)cc1)c1ccc(NCCc2ccc(F)cc2)c([N+](=O)[O-])c1 (configuration not stated) | 0.09 | -0.9
OC1(c2ccc(F)cc2)CSC(=Nc2cccnc2)N1Cc1ccco1 (configuration not stated) | -0.11 | -0.4
COc1ccccc1C1C(C#N)=C(N)Oc2cc(C)n(Cc3ccccn3)c(=O)c21 (configuration not stated) | -0.12 | -0.5
O=C(Nc1ccc(S(=O)(=O)NCC2CCCO2)cc1)c1ccc(F)cc1 (configuration not stated) | -0.07 | 0.1
O=C(O)Cc1c(O)ccc2ccccc12 | -0.83 | 0.1
O=[N+]([O-])c1ccccc1/C=C/C=N/N1CCCCC1 | -0.83 | -3.1
CC(C)(C)C(O)/C=C/c1ccc2c(c1)OCO2 (configuration not stated) | -0.71 | 0.2
CN(C)S(=O)(=O)c1ccc(N2CCCC2)c(C(=O)N2CCN(S(=O)(=O)c3cccc(F)c3)CC2)c1 | -0.42 | 0.5
Cn1c(=O)[nH]c(=O)c2c1nc(N1CCOCC1)n2CC(=O)c1ccccc1 | 0.01 | -0.9
CCOc1cc(/C=C/c2nc3ccccc3c(=O)[nH]2)cc(Br)c1OC | -1.1 | -1.3
COc1ccc(CC(=O)Nc2c(C(=O)N3CCN(c4ccccc4OC)CC3)oc3ccccc23)cc1OC | 1.4 | 3.0

More compounds follow:
SMILES | Kir21 block | STK33 inh
CSc1sc(C(=O)N(C)C)cc1S(=O)(=O)C(C)C | 0.01 | 0.1
COc1ccc(NC2c3ccccc3C(=O)N2c2ccccn2)cc1Cl (configuration not stated) | 1.8 | -0.2
COC(=O)C1=C(CS(=O)(=O)c2ccccc2)NC(=O)NC1c1ccccc1 (configuration not stated) | -0.11 | 0.3
COc1ccc(C(=O)C2CCCN(Cc3cn[nH]c3-c3ccccc3)C2)cc1OC (configuration not stated) | 0.91 | 1.3
Cc1ccc(-c2nnc(Nc3ccc(C(N)=O)cc3)c3ccccc23)cc1S(=O)(=O)NCC1CCCO1 (configuration not stated) | -0.25 | 0.5
Cn1c(SCC(=O)c2ccccc2)nnc1C1CC1 | 0.13 | -0.9
CCc1sc(C(=O)NCc2ccccc2)cc1C | 1.3 | -1.3
O=C(CSc1nc(-c2cccs2)cc(C(F)(F)F)n1)NCc1ccco1 | -1.6 | -1.6
CC(NC(=O)OCc1ccccc1)C(=O)OCN1C(=O)c2ccccc2C1=O (configuration not stated) | -0.4 | -0.4

Fetched one by one from the entries so far:
SMILES | Kir21 block | STK33 inh
CC(NC(=O)OCc1ccccc1)C(=O)OCN1C(=O)c2ccccc2C1=O (configuration not stated) | -0.4 | -0.4
Cc1ccc(-c2nnc(Nc3ccc(C(N)=O)cc3)c3ccccc23)cc1S(=O)(=O)NCC1CCCO1 (configuration not stated) | -0.25 | 0.5
